Assay outcomes: PubChem BioAssay, National Center for Advancing Translational Sciences (NCATS)
Lassa entry inh – qHTS for Inhibitors of binding or entry into cells for Lassa Virus. 300,000 tested, 1.2% active. Potency, µM (titrated, usually from 37.9 µM), inactives show at the top dose activity change, negative = inhibition, actives largely listed as inhibitors. Lassa virus pseudotype entry inhibition, cell reporter; control for the full effect not named in the record; active means well fitted inhibition curve with a large enough effect; inconclusive means small, poorly fitted or top-dose-only effect, or effect the other way; inactive means flat fitted curve, though single readings scatter; tested in HEK293 cells; further: on the % scale 0 is the no-effect control and ±100 the full control effect; nearly all actives have a fitted effect of over 50% in size; luciferase read-out
SARS PLpro yeast – qHTS of Yeast-based Assay for SARS-CoV PLP; S. cerevisiae expressing SARS-CoV PLpro, growth rescue; control for the full effect not named in the record; Potency, µM (doses to about 32.9 µM), without a hit: at the top dose activity, positive = growth rescue; 330,000 tested, 0.19% active; active means well fitted rising curve with a large enough effect; inconclusive means small, poorly fitted or top-dose-only effect; inactive means no such curve, though single readings can be large or run the other way; further: 0% is about no effect; nearly all actives have a fitted effect of over 55% in size; growth read by luminescence after 48 h
2A StopGo – High Throughput Screening for Foot and Mouth Disease Virus Antivirals. Potency, µM (doses to about 57.9 µM), inactives show at the highest dose signal change, negative = less light. human cells with a luciferase reporter of 2A StopGo recoding; control for the full effect not named in the record. 410,000 tested, 1.2% active. AID 1159524, 2015; active = well fitted falling curve with a large enough effect; inconclusive = small, poorly fitted or top-dose-only effect; inactive = no such curve, though single readings can be large or run the other way; tested in HEK293T cells; further: on the % scale 0 is the no-effect control and ±100 the full control effect; nearly all actives have a fitted effect of over 45% in size; luciferase light after 4 h
Cruzain Triton – qHTS Assay for Promiscuous and Specific Inhibitors of Cruzain (with detergent). Potency, µM, without a hit: max response, negative = inhibition, usual class: inhibitors. AID 1478, 2009. purified cruzain, Z-FR-AMC fluorescence, 0.01% Triton. 200,000 tested, 0.43% active;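 further: plate controls were neutral wells for no effect and buffer without enzyme for full effect; nearly all actives have a fitted effect of over 40% in size; top concentration of the series not given in the record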
Target sequence (P25779 123-467 limits assumed): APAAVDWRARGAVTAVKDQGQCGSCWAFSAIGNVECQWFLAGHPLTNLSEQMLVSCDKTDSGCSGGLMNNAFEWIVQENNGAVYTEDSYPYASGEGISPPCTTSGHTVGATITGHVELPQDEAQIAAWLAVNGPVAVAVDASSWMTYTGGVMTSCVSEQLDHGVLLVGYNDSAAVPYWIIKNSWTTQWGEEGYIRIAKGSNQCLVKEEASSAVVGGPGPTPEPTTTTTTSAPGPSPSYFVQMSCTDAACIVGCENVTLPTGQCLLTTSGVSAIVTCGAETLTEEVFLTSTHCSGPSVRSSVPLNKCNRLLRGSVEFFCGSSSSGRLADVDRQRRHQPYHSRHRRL
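Sodium acetate buffer (100 mM, pH 5.5) containing 5 mM DTT and 0.01% Triton X-100 hosted 1.5 nM cruzain and test compound for 15 min at room temperature. Cleavage of 2 uM Z-FR-AMC was then tracked by fluorescence.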
Marburg entry inh – qHTS for inhibitors of binding or entry into cells for Marburg Virus; AID 540276, 2011; Marburg virus pseudotyped entry inhibition, cell reporter; control for the full effect not named in the record; about a third of the inactives were read at about 46 µM; 300,000 tested, 1.8% active; Potency, µM (titrated, usually from 37.8 µM), inactives show at the highest dose activity change, negative = inhibition, actives largely listed as inhibitors; active = well fitted inhibition curve with a large enough effect; inconclusive = small, poorly fitted or top-dose-only effect, or effect the other way; inactive = flat fitted curve, though single readings scatter; tested in HEK293 cells; about a fifth of its hits are not listed in these tables; further: on the % scale 0 is the no-effect control and ±100 the full control effect; luciferase read-out
RE007 growth inh – qHTS Assay for Inhibitors of the HIV-1 protein Vpr; S. pombe RE007 Vpr strain, BacTiter-Glo ATP luminescence, 24 h; control for the full effect not named in the record; 360,000 tested, 0.21% active; Potency, µM (series often up to 92.2 µM), without a hit: top-dose activity change, negative = less growth; active = well fitted falling curve with a large enough effect; inconclusive = small, poorly fitted or top-dose-only effect; inactive = no such curve, though single readings can be large or run the other way;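 further: on the % scale 0 is the no-effect control and ±100 the full control effect; nearly all actives have a fitted effect of over 50% in size; the assay follows cell death caused by Vpr and the record does not say whether a fall means rescue or toxicity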
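Fission yeast strain RE007, carrying one chromosomally integrated HIV-1 vpr copy, was seeded at OD 0.01 in PMG+AL medium with 23 nL pinned compound. After 24 h at 30 °C and 99% humidity, viability was read by BacTiter-Glo luminescence.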
NS1 inh – qHTS Assay for Inhibitors of Influenza NS1 Protein Function; S. cerevisiae slowed by influenza A NS1, growth recovery by OD600; Potency, µM (series often up to 46.1 µM), inactives show top-dose activity, positive = more growth; 270,000 tested, 0.4% active; AID 2326, 2010; active means well fitted rising curve with a large enough effect; inconclusive means small, poorly fitted or top-dose-only effect; inactive means no such curve, though single readings can be large or run the other way; further: nearly all actives have a fitted effect of over 50% in size
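Recovery from NS1-induced slow growth read by OD600 in budding yeast switched to galactose assay medium (pH 6.0, -URA) at 1:100 dilution. Compound 23 nl per well; the matching strain lacking NS1 serves as control.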
Cruzain noTriton – qHTS Assay for Promiscuous and Specific Inhibitors of Cruzain (without detergent) | Potency, µM, for inactives: max response, negative = inhibition, actives largely listed as inhibitors | purified cruzain, Z-FR-AMC fluorescence, no detergent | Cruzipain (Trypanosoma cruzi), P25779 | 200,000 tested, 2.3% active;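 further: plate controls were enzyme without inhibitor for no effect and buffer without enzyme for full effect; nearly all actives have a fitted effect of over 40% in size; top concentration of the series not given in the record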
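Detergent-free condition (0.00005% Triton X-100) in acetate buffer pH 5.5 with DTT. 1.5 nM enzyme and compound were pre-mixed 15 min, then 2 uM Z-FR-AMC substrate added; reaction progress from fluorescence change between first and third reads (60 s).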
* hit, by the source's call; ? = inconclusive; . = no result given; & = joins results of further samples; [ ] = dose if it differs, or a comment. Unless noted, the call rests on the fitted dose curve; in most records, active means well fitted curve in the direction sought with a large enough effect; inconclusive means small, poorly fitted or top-dose-only effect, or another doubt; inactive means no such curve, though single readings can be large; an effect the other way counts as inactive or inconclusive. Potency means the concentration at half of the fitted maximal effect.

SMILES | Lassa entry inh | SARS PLpro yeast | 2A StopGo | Cruzain Triton | Marburg entry inh | RE007 growth inh | NS1 inh | Cruzain noTriton
CS(=O)(=O)Nc1ccc(C(=O)NCc2cccnc2)cc1 | -2% | 2% | . | 0.5% | 11% | -20% | -3% | 15%
CCC(=O)c1ccc(OCC(=O)NCCCN2CCOCC2)cc1 | 15% | . | -6% | . | 3%[46.1 µM] | 12% | . | .
Fc1ccccc1NC(=S)N1CCC(c2ccccc2)C1 (stereo not drawn) | ? | 3% | 22% | . | 2%[46.1 µM] | 10% | . | .
COc1ccc(CC(=O)N/N=C(\C)c2cccc(NC(=O)C3CC3)c2)cc1 | -25%[46.1 µM] | 2% | -1% | . | -18%[46.1 µM] | -7% | -2% | .
Cc1cccc(NC(=O)c2cc(S(=O)(=O)NCCc3ccccc3)ccc2F)c1C | 5%[46.1 µM] | . | 32%[activator] | 0.3% | . | . | . | 1%
CCCOc1ccc(N2C(=O)CC(SCc3nc4ccccc4[nH]3)C2=O)cc1 (stereo not drawn) | -2% | -6% | 2% | . | 6% | 63µM* | -52% | .
O=C(/N=C1/c2ccccc2CN1c1ccccc1)Nc1ccccc1 | 1% | -6% | 11% | -8.0% | -5% | -10% | -5% | -2%
COc1ccc2c(CC#N)c[nH]c2c1 | -1% | -8% | 8% | -6.3% | 6% | -9% | -4% | 4%
O=C(CN1CCN(c2nc(-c3ccccc3)cs2)CC1)NNC(=O)c1ccco1 | -1% | -1% | -8% | . | -10% | -9% | . | .
COc1cc(CN(C2CCCCC2C)S(=O)(=O)c2ccc(S(=O)(=O)NC3CC3)cc2)cc(OC)c1OC (stereo not drawn) | ? | -6% | -29% | -4.7% | 10µM* | 16% | 26% | 26%
Cc1occc1-c1nnc(SCc2cc(=O)n3cc(Br)ccc3n2)n1C | ? | 2% | -21% | -1.9% | -1% | -16% | 1% | -6%
COc1cc2c(cc1NC(=O)Nc1ccccc1)oc1ccccc12 | -19% | -10% | ? | 6.6% | -4% | 60% | -63% | ?
O=C(c1ccc(Cl)cc1)C(CN1CCCCC1)c1ccccc1 (stereo not drawn) | ? | -6% | 14µM* | . | ? | ? | -89% | .
O=C(CSc1cn(CC(=O)N2CCCCC2)c2ccccc12)Nc1ccc(C(F)(F)F)cc1 | 17%[46.1 µM] | . | -6% | -1.9% | . | . | . | -9%
Cc1ccc(C(=O)N2CC(C)SC2=Nc2cccc(S(=O)(=O)N(C)C)c2)cc1 (stereo not drawn) | 3.2µM* | 2% | -19% | -4.0% | -12% | -16% | 0% | 11%
COc1ccc(NC(=O)CN(C)C(=O)C(C)Oc2ccc(Br)cc2)cc1 (stereo not drawn) | ? | -1% | 8% | . | -1% | -7% | . | .
Cc1[nH]nc(-c2ccc(O)c(C)c2O)c1-c1cnn(-c2ccccc2)c1 | -13% | -9% | -2% | -4.7% | ? | -5% | -54% | -20%
CCOc1ccc(S(=O)(=O)N2CCCC2)cc1 | ? | 6% | 10% | -0.1% | 23% | 3% | -8% | 4%
CC(CNC(=O)CN1C(=O)NC2(CCCCC2)C1=O)c1ccccc1 (stereo not drawn) | 7% | -2% | -10% | . | -14% | 9% | . | .
NC1=NC(=Nc2cccc(S(N)(=O)=O)c2)c2ccccc21 | . | 0% | -4% | . | . | -2% | 5% | .

Fetched one by one from the list above (2):
SMILES | Lassa entry inh | SARS PLpro yeast | 2A StopGo | Cruzain Triton | Marburg entry inh | RE007 growth inh | NS1 inh | Cruzain noTriton
COc1ccc(NC(=O)CN(C)C(=O)C(C)Oc2ccc(Br)cc2)cc1 (stereo not drawn) | ? | -1% | 8% | . | -1% | -7% | . | .
CCC(=O)c1ccc(OCC(=O)NCCCN2CCOCC2)cc1 | 15% | . | -6% | . | 3%[46.1 µM] | 12% | . | .

The listing continues:
SMILES | Lassa entry inh | SARS PLpro yeast | 2A StopGo | Cruzain Triton | Marburg entry inh | RE007 growth inh | NS1 inh | Cruzain noTriton
O=C(O)C1C2C=CC(O2)C1C(=O)Nc1ccccn1 (stereo not drawn) | 11%[46.1 µM] | . | -4% | . | 8%[46.1 µM] | -13% | . | .
COc1ccc(OCCC(=O)NC2CCCCC2)cc1 | -8%[46.1 µM] | 1% | -5% | . | 8% | 1% | . | .
CCN1C(=O)c2ccc(C(=O)NCc3ccco3)cc2C1=O | -8% | 4% | 14% | . | 6% | 6% | -3% | .
COc1ccc(OC)c(CNC(=O)c2ccc3c(c2)c(C)c(C)n3C)c1 | 26%[46.1 µM] | . | 1% | -1.8% | . | . | . | ?
CC(C)COc1nc2c(c(=O)n(C)c(=O)n2C)n1C | . | 9% | 3% | . | . | 0% | -2% | .
N#CCC(CNc1ncc(C(F)(F)F)cc1Cl)OC(=O)c1ccc(Cl)cc1Cl (stereo not drawn) | 0% | -16% | . | -2.9% | -6% | -6% | -14% | 13%
CC(C)c1ccc(NC2CCCN(C(=O)c3cccnc3)C2)cc1 (stereo not drawn) | -11%[46.1 µM] | 1% | ? | . | 6%[46.1 µM] | 13% | -18% | .
COc1ccc(-c2c(C#N)c(SCC(=O)Nc3ccc(Br)cc3)nc(C)c2C(=O)Nc2ccccc2)cc1 | -3%[46.1 µM] | . | -12% | -0.2% | . | . | . | 10µM*
Cc1ccc2cc3cc(C(=O)NC4CCCCC4)oc3nc2c1 | . | 25% | 8% | . | . | 0% | -2% | .
Fc1ccc(NC(=S)NCCc2ccccc2)c(F)c1F | -21% | -21% | . | -5.3% | -10% | 3% | . | 11%
COc1ccc(/C=N/NC(=O)C(=O)/C=C2\NC3(CCCC3)Cc3ccccc32)cc1 | -23% | 7% | ? | -4.2% | ? | 30% | 16% | ?
COc1ccc(CN(CC(=O)NCc2ccco2)C(=O)CCC(=O)Nc2ccccn2)cc1 | -4% | 3% | -7% | 2.6% | 1%&-26% | 10% | -3% | 2%
Cc1ccc(OCc2nnnn2-c2ccccc2)cc1 | -25% | 15% | 3% | -2.3% | 15% | 48% | -4% | -9%
O=C1CN2C(=Nc3ccc(Br)cc3C2c2ccccc2)CCN1 (stereo not drawn) | 11% | -4% | -2% | -4.1% | -7% | -2% | -8% | -2%
CC(C)NC(=O)Cn1c(SCC(=O)N2c3ccccc3CC2C)nc2ccccc21 (stereo not drawn) | -9% | ? | -1% | 2.1% | -15% | -9% | -4% | -6%
Fc1ccccc1COc1ccc(/C=N/n2cnnc2)cc1 | -10% | 0% | 8% | -6.6% | -2% | 8% | -176% | 3%
Cn1c(SCC(=O)N2CCCC2)nnc1-c1ccc2c(c1)OCO2 | 19%[46.1 µM] | -1% | 33%[activator] | . | 2%[46.1 µM] | 3% | 5% | .
Cc1ccc(S(=O)(=O)N(C)C)cc1NC(=O)/C=C/c1cccs1 | 0% | 8% | -10% | -7.8% | ? | . | ? | -6%
CCc1ccc(-c2nc(SCC(=O)N(CCOC)c3c(N)n(Cc4ccccc4)c(=O)[nH]c3=O)n[nH]2)cc1 | ? | 7% | 17% | . | -3% | -11% | -2% | .
CC1(C(=O)N/N=C/c2ccccc2)CC1(Cl)Cl (stereo not drawn) | 21% | -1% | 18% | . | -25% | 35% | -2% | .
CN(C)C(CNC1CC(C)(C)NC(C)(C)C1)c1cccc(F)c1 (stereo not drawn) | 10%[46.1 µM] | 1% | 0% | . | ? | 3% | 2% | .
O=C(CSc1n[nH]c(=O)n1-c1cccnc1)Nc1ccccc1Cl | -8% | 4% | -13% | . | ? | -10% | -8% | .
CCN1C(=O)NC(c2cc(Br)ccc2OC)C(C(=O)OC)=C1C (stereo not drawn) | 0% | 3% | ? | -3.7% | -12% | 9% | -22% | -10%
O=C(Nc1ccc2c(c1)OCCO2)c1ccccn1 | . | -13% | -56% | . | . | ? | 0% | .
Cc1nccn1-c1c2c(c(C#N)c3nc4ccccc4n13)CCCC2 | 12% | . | 5% | . | 14%[46.1 µM] | 1% | 2% | .
C=CCn1c(C)cc(C2=NNC(=Nc3ccc(C)cc3)SC2)c1C | 6%[46.1 µM] | -3% | 29% | . | ? | -6% | . | .
COc1ccc(C2c3cc(OC)c(OC)cc3CCN2C2CC(=O)N(c3ccccc3)C2=O)cc1OC (stereo not drawn) | 14% | 4% | -21% | -2.2% | -7% | -15% | 3% | ?
O=C(Nc1ccc(F)cc1)Nc1ccc([N+](=O)[O-])cn1 | -23% | -2% | 6% | . | 0%[46.1 µM] | 3% | . | .
CCOC(=O)C1CCN(c2cc3c(cc2NC(=O)c2ccc(Cl)cc2)n(C)c(=O)n3C)CC1 | -1%[46.1 µM] | . | 4% | -0.7% | 8%[46.1 µM] | . | . | 4%
Cc1[nH]n(C(N)=S)c(=O)c1N=Nc1cccc([N+](=O)[O-])c1C | . | 5% | 0% | . | . | -3% | -11% | .
CCCCCCCC(=O)NN1CCOCC1 | 8% | 7% | 6% | -1.3% | -16% | 2% | -6% | -8%
CCOC(=O)c1ccc(NC(=O)c2cn(-c3ccccc3)nc2-c2ccc(OC)c(OC)c2)cc1 | 1%[46.1 µM] | . | -27% | -5.0% | . | . | . | 28%
CCOc1cc(S(=O)(=O)N2CCC(Cc3ccccc3)CC2)c(OCC)cc1-n1cnnn1 | -30% | -3% | . | 0.9% | ? | 0% | 23% | 6%

An excerpt of these results, with two lines to a compound:
Values run as follows: Lassa entry inh | SARS PLpro yeast | 2A StopGo | Cruzain Triton | Marburg entry inh | RE007 growth inh | NS1 inh | Cruzain noTriton
- O=C(Nc1ccc(F)cc1)Nc1ccc([N+](=O)[O-])cn1
  -23% | -2% | 6% | . | 0%[46.1 µM] | 3% | . | .
- COc1ccc(C2c3cc(OC)c(OC)cc3CCN2C2CC(=O)N(c3ccccc3)C2=O)cc1OC (stereo not drawn)
  14% | 4% | -21% | -2.2% | -7% | -15% | 3% | ?
- Cc1[nH]n(C(N)=S)c(=O)c1N=Nc1cccc([N+](=O)[O-])c1C
  . | 5% | 0% | . | . | -3% | -11% | .

Rows were taken by chance; overall some 4.8% were active at least once.
